Assay outcomes (PubChem)
TRPML1 inh: inhibitors of human TRPML1 channel | Q9GZU1 | TRPML1-inducible cells, Ca2+ dye fluorescence, FDSS; stronger effect = lower value; inhibition of EC80 agonist-evoked calcium signal | activity change, negative = inhibition, % (concentration not given with the values) | actives 0.02% (n = 390,000) | AID 624415; in the data active means activity change below about -50%; inconclusive means about -30% to -50%; inactive means above about -30%;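 also: stimulus is agonist 54-4 at its EC80 concentration; % is scaled to controls: 0 for no effect and ±100 for the full control effect; compound concentration not given in the record; the text of the record puts the active cut at -80%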
Target sequence (Q9GZU1 whole entry, looked up): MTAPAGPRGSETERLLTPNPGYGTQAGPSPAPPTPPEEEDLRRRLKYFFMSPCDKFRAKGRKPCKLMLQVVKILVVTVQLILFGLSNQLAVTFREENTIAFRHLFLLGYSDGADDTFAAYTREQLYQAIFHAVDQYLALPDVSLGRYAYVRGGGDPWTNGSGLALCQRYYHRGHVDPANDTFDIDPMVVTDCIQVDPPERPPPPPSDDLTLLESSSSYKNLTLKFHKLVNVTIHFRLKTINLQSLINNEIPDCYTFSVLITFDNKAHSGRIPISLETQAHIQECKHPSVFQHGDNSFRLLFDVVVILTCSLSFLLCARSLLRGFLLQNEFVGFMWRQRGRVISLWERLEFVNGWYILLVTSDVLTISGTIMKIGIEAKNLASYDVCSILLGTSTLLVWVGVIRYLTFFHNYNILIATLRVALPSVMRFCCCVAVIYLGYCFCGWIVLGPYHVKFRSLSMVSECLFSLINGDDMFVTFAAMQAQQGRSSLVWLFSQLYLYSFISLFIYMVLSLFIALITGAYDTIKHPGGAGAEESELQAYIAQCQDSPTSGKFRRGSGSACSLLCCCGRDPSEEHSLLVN
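Calcium fluorescence in TRPML1-DL cells induced overnight with Tet: a 110 s read after compound pin addition, then a 110 s antagonist read after challenge with 54-4 at 4 uM final (EC80).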
ClpP mod: qHTS Assay for Activators of ClpP; ATP-dependent Clp protease proteolytic subunit (Bacillus subtilis (strain 168)), P80244; actives 1.9% (n = 340,000); Potency, µM (series often up to 57.5 µM), for inactives: at the highest dose activity change, negative = active; AID 651965, 2013; purified B. subtilis ClpP, FRET peptide cleavage, 20 min; active = well fitted falling curve with a large enough effect; inconclusive = small, poorly fitted or top-dose-only effect; inactive = no such curve, though single readings can be large or run the other way; also: potency is read from the fitted curve at half-maximal effect; the source files actives as falling curves though it sought activators and does not explain the sign; nearly all actives have a fitted effect of over 65% in size; many hits overshoot -100%
Target sequence (P80244 whole entry, looked up): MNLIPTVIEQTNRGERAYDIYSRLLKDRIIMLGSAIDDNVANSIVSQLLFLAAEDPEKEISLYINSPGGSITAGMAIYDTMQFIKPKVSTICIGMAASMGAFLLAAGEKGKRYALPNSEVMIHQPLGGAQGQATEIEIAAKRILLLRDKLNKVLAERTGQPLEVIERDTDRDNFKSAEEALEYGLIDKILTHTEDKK
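Buffer: 100 mM Tris/HCl pH8, 100 mM KCl, 0.05% low protease BSA, 2.5% glycerol, 0.01% Tween-20. ClpP 10 microg/mL final; 20 min RT; delta FRET normalized to ADEP and DMSO controls.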
Starred values were filed as active, the others as inactive; ? = inconclusive. These rows are one share of the data; rates above refer to the full screens.

SMILES	TRPML1 inh	ClpP mod
COc1cc2c(cc1OC)C(COc1ccccc1OC)N(C(=O)c1ccc(S(=O)(=O)N(C)C)cc1)CC2 (stereo not drawn)	-7.0	-1.0%
CCN(CC)S(=O)(=O)c1ccc2c(c1)N(CC(=O)Nc1c(C)cc(C)cc1C)C(=O)C1CCCN21 (stereo not drawn)	7.1	-0.1%
O=C(O)CSc1nc2ccccc2nc1N1CCCCC1	8.0	0.9%
CCOC(=O)C(CC)N1CCN(Cc2ccc(F)cc2)C(=O)C1=O (stereo not drawn)	-11.1	0.7%
O=C(CSc1nc2c([nH]c3ccccc32)c(=O)n1-c1ccccc1)N1CCCCCC1	13.4	-17.6%
Cc1ccc(NC(=O)c2nc(-c3ccncc3)no2)c(Cl)c1	2.7	-6.7%
CCC(=O)N1c2ccc(S(=O)(=O)CCC(=O)N3CCN(c4cc(C)ccc4C)CC3)cc2CC1C (stereo not drawn)	-11.9	-0.9%
CCN(CC)c1nn2c(=O)c(C(=O)NCc3cccc(C)c3)cnc2s1	-14.5	?
Cc1cccc(OCc2nc(CC(=O)Nc3ccc(Cl)cc3)cs2)c1	-2.8	-4.2%
CCCCNC(=O)CN1CCN(c2ncc(NC(=O)c3ccc(Cl)cc3)cc2C(=O)O)CC1	-9.9	1.3%
Cc1ccc(-c2onc(C)c2C)cc1S(=O)(=O)N1CCOc2ccc(Cl)cc21	7.6	-2.4%
COC(=O)C1=C(C)NC(=O)NC1c1cn(-c2ccccc2)nc1-c1ccc(OC)c(Br)c1 (stereo not drawn)	15.1	-5.6%
Cc1cc(Br)cn2c(Cc3ccsc3)c(-c3cccc(Cl)c3)nc12	31.4	0.6%
COc1ccc(OC)c(NC(=O)[C@H](Cc2ccccc2)N2Cc3ccccc3C2=O)c1	-22.3	-1.0%
CC1CCCCN1Cc1nc2c(c(=O)n(C)c(=O)n2C)n1Cc1ccc(Br)cc1 (stereo not drawn)	7.8	-0.2%
CCOc1ccc(CCNC(=O)CCc2c(C)nc3c(c(C)nn3-c3ccc(C)c(C)c3)c2C)cc1	56.2	?
COc1ccc(-c2nc3sc(CCNC(=O)Cc4ccc(F)cc4)c(C)n3n2)cc1	11.7	-0.9%
COc1ccccc1NC(=O)c1cc2ccc3cccnc3c2[nH]1	35.9	-2.2%
NC(=O)c1nc(Nc2ccccc2)sc1NC(=O)c1ccccc1Br	11.9	0.9%
Cc1nc(NC(=O)c2c(-c3ccccc3)c(-c3ccccc3)nn(C)c2=O)sc1C	4.4	0.0%
CCOc1ccc(NC(=O)CSc2cc(C)c3ccccc3n2)cc1	9.4	2.7%
Cc1cc2ccccc2n1CCNC(=O)c1ccc(F)cc1	5.5	0.2%
O=S(=O)(NCc1nc2cccnc2n1Cc1ccc(F)cc1)c1ccc2c(c1)CCCC2	23.6	0.9%
O=c1n(Cc2ccc(F)cc2)nc2n1-c1cc(Cl)ccc1OC2	7.0	0.9%
Cc1ccc(NC(=O)c2ccc(COc3ccccc3Cl)o2)cc1	1.8	15.0%
CN(C)c1ccc(C(=O)Nc2ccc(-c3nc4ccccc4o3)cc2)cc1	-3.5	4.0%
O=C(Cn1c(=O)oc2cc(S(=O)(=O)NCc3ccccc3)ccc21)NCc1ccc(F)cc1	-9.6	-1.2%
Cc1nc2cccnc2n1C1CCN(C(=O)Nc2ccccc2)CC1	-11.5	0.5%
CCOc1ccccc1NC(=O)Cn1c(=O)n(CCCCC(=O)NCCCOC)c(=O)c2ccccc21	10.9	0.5%
CCCCn1c(CNC(=O)C23CC4CC(CC(C4)C2)C3)nnc1SCC(=O)Nc1ccc(F)cc1	0.4	-0.5%
CCOC(=O)Cn1c(=O)oc2cc(S(=O)(=O)N3CCN(c4ccc(C(C)=O)cc4)CC3)ccc21	8.3	?
Cc1c(Cl)cccc1NC(=O)CC(c1cccs1)N1Cc2ccccc2C1=O (stereo not drawn)	-10.6	-1.5%
COC(=O)c1nc2n(n1)C(c1cc(OC)ccc1OC)C=C(c1ccc(Br)cc1)N2 (stereo not drawn)	5.8	-2.4%
Cc1ccc2nc(NC(=O)c3ccc(S(=O)(=O)N4CCC(C)CC4)cc3)sc2c1	7.8	-5.3%
COc1cc(/C=C/c2nc3cc(Cl)ccc3c(=O)n2-c2ccc(C)cc2C)cc(OC)c1OC	20.7	0.3%
Cc1cccc(NC(=O)c2oc3ccccc3c2NC(=O)Cc2coc3c(C)c(C)ccc23)c1	-4.9	?
CCOC(=O)c1noc2ncnc(N3CCN(c4cccc(C(F)(F)F)c4)CC3)c12	-5.7	-2.0%
Cc1ccc(-n2nc(C(=O)N3CCN(c4cc(C)ccc4C)CC3)c3c4ccccc4n(C)c3c2=O)cc1	-18.5	0.9%
COc1ccc(NC(=O)C2CCCN(S(=O)(=O)c3ccc(Br)s3)C2)cc1 (stereo not drawn)	48.6	-4.8%
CCOc1ccc(C2C(=O)N(C3CCCCC3)CC(=O)N2Cc2ccccc2OC)cc1OC (stereo not drawn)	-12.1	-0.3%
COC(=O)c1ccc2nc(C3CCCCC3)c(Cc3ccccc3C(F)(F)F)n2c1	-7.4	-11.4%
O=C(Nc1ccccc1-c1nc2ccccc2s1)c1ccc(F)cc1	-3.1	-3.5%
Cc1ccc(NC(=O)CSc2nc(=O)n(CCN3CCOCC3)c3c2CCC3)cc1Cl	-10.2	-7.3%
CSc1ccc(C2CC(=O)Oc3c2c(=O)n(C)c2ccccc32)cc1 (stereo not drawn)	-9.4	-13.3%
CCCN1CCN(c2nnc(-n3cccc3C(=O)Nc3cc(Cl)ccc3C)s2)CC1	32.4	-4.1%
CCCCN(C)c1nnc(NC(=O)Nc2cccc(C(C)=O)c2)s1	-18.0	-0.2%
COc1ccc(C(=O)NCCn2cc(SCC(=O)Nc3ccc4c(c3)OCCO4)c3ccccc32)cc1OC	-9.0	-10.7%
CCOC(=O)c1c(Nc2ccc(OC)cc2)nnc(-c2ccccc2)c1-c1ccccc1	7.2	-0.1%
Cc1ccc(N2C(=O)CS(=O)(=O)C23C(=O)N(Cc2ccccc2F)c2ccccc23)cc1Cl (stereo not drawn)	1.6	-1.0%
Cc1ccc2c(c1)N(C(=O)CCC(=O)NCc1cccs1)CCO2	-14.8	-3.2%
CCOc1ccc(C(=O)NCCS(=O)(=O)N2CCN(c3cccc(Cl)c3)CC2)cc1	-22.3	1.0%
CCOc1cc(CNC(=O)c2ccc(Cn3c(=O)c4cccn4c4cccnc43)cc2)ccc1OC	11.6	-24.5%
COc1ccc(C)cc1NS(=O)(=O)c1cnc(N)nc1	14.6	-1.5%
CC(=O)N1c2ccc(S(=O)(=O)NCC3CCC(C(=O)Nc4cccc(C)c4)CC3)cc2CC1C (stereo not drawn)	-2.2	0.7%
CC(C)COc1ccc(-c2nonc2NC(=O)c2ccc(F)cc2)cc1	37.8	-0.1%
CCc1ccccc1NC(=O)CCCN1C(=O)COc2ccc(C)cc21	1.2	-2.0%
CCCC12CN3CC(CCC)(CN(C1)C3c1c[nH]c3ccccc13)C2=O (stereo not drawn)	14.3	-0.7%
Cc1nc2c(c(C)c1CCC(=O)Nc1ccc(F)cc1)c(=O)n(C)c(=O)n2C	-6.7	-3.9%
CCc1ccc(CNC(=O)c2ccc(CSc3nc4ccncc4n3Cc3ccc(OC)cc3)cc2)cc1	-22.2	-26.0%
CCOC(=O)c1ccc2ncc(C(=O)OCC)c(NCCc3ccc(OC)c(OC)c3)c2c1	-9.5	-12.7%
The listing continues.
SMILES	TRPML1 inh	ClpP mod
Cc1ccc2[nH]c(CSc3nnc(NC(=O)COc4ccccc4Cl)s3)cc(=O)c2c1	-9.8	-0.7%
CCCC(=O)OC1=C(C(C)=O)N(Cc2ccccc2)S(=O)(=O)c2ccccc21	-5.7	-1.6%
COc1ccc(CCNC(=O)Cn2c(=O)nc(-c3ccccc3)c3cc(Cl)ccc32)cc1OC	-27.5	-9.9%
COc1ccc(NC(=O)CSc2nc3ccccc3n2CC(=O)Nc2cccc(C)c2C)cc1	15.9	0.4%
COc1cc(/C=C(\C#N)c2nc3ccccc3[nH]2)ccc1OCc1ccc(F)cc1	9.5	42.7%
COc1ccc(NC(=O)CN(C)S(=O)(=O)c2ccc3nc(C)sc3c2)cc1	-23.1	0.5%
CN(C)S(=O)(=O)c1ccc(C(=O)NCCS(=O)(=O)N2CCN(c3ccccc3)CC2)cc1	-0.9	-2.4%
CCOC(=O)c1ccc(NC(=O)CCc2c(C)nc3c(c(C)nn3-c3ccccc3)c2C)cc1	24.0	?
COc1cccc(CNC(=O)c2ccc3c(c2)nc2n3CCC(C)C2)c1 (stereo not drawn)	-11.6	-0.4%
COC(=O)c1sc(N2C(=O)c3oc4ccccc4c(=O)c3C2c2ccc(O)cc2)nc1C (stereo not drawn)	13.3	-0.8%
Cc1ccc(-c2cnc(NCc3ccc(C(C)C)cc3)n2C)cc1	-12.4	28.2µM*
Cc1ccc(-c2cc(C(F)(F)F)n3nc(-c4ccc(Cl)cc4)cc3n2)cc1	-6.2	1.4%
CCOC(=O)N1CCC(NC(=O)c2ccc3c(c2)N(Cc2ccc(F)cc2)C(=O)c2ccccc2S3(=O)=O)CC1	?	-4.6%
O=C(COc1ccc(Cl)cc1)NCCc1csc(-c2ccc(C(F)(F)F)cc2)n1	5.3	60.6%
CCc1nc2nc(C)c(NS(=O)(=O)c3ccc(F)c(C)c3)c(=O)n2[nH]1	-16.2	-4.3%
Cc1ccc(-n2nnc(-c3nc(-c4cccs4)no3)c2N)c(C)c1	0.9	-6.0%
CCN1CCN(C(c2cccc(Cl)c2)c2c(O)cc(C)n(CCOC)c2=O)CC1 (stereo not drawn)	-18.9	-3.6%
Cc1ccc(S(=O)(=O)NCCc2nnc3ccc(SCc4ccccc4F)nn23)cc1	-0.3	-1.7%
CCc1ccc2oc(C(=O)Nc3nc(-c4ccc(F)cc4)ns3)c(C)c2c1	34.8	-3.7%
CCCCN(CC)C(=O)C1CCCN(c2ncnc3onc(C)c23)C1 (stereo not drawn)	-7.8	-1.0%
Cc1cc(O)c(C(c2ccccc2)N2CCC(C)CC2)c(=O)n1Cc1ccco1 (stereo not drawn)	0.8	-2.8%
COc1ccc(Br)cc1CNC(=O)c1cc2n(n1)CCCN(Cc1ccc(C)cc1)C2=O	19.2	1.0%
COc1cc2c(C(=O)Nc3cc(OC)c(OC)c(OC)c3)cn(C)c(=O)c2cc1OC	21.4	0.1%
O=C(c1cccc(Cl)c1)N1CCN(CCc2ccncc2)CC1	20.7	2.4%
COc1ccc(C(=O)Nc2nnc(S(=O)(=O)N(C)c3ccc(C)cc3)s2)cc1	18.9	-3.7%
CSc1ccc(CCNC(=O)c2cc3n(n2)CCCN(Cc2ccc(C)cc2)C3=O)cc1	-8.8	-3.7%
CCN(CC)CCNC(=O)C1CCN(C(=O)c2cnn(-c3ccccc3)c2-n2cccc2)CC1	16.3	0.0%
COc1ccc(Cl)cc1NC(=O)c1cc(-c2ccc3c(c2)OCO3)on1	-9.0	-1.1%
CCc1ccccc1N1CC(c2nc3ccccc3n2CCCCOc2ccccc2OC)CC1=O (stereo not drawn)	-0.2	-1.9%
O=C(NC1CC(=O)N(c2ccc(Cl)cc2)C1)c1ccc(S(=O)(=O)N2CCOCC2)cc1 (stereo not drawn)	-14.8	-1.1%
CCOC(=O)c1c(C)oc2nc(C)nc(NCC3CCN(Cc4ccc(F)cc4)CC3)c12	13.8	0.2%
Cc1nc2nc(C)c(CCC(=O)NCc3cccc(Cl)c3)c(C)n2n1	2.7	-3.0%
O=c1oc2c(CN3CCOCC3)c(O)ccc2cc1-c1ccc(Cl)cc1	24.6	3.5%
CCOC(=O)c1c(C)[nH]c(C)c1S(=O)(=O)N1CCC(C(=O)Nc2ccc(OCC)cc2)CC1	-11.6	0.9%
CCc1cccc(NC(=O)Cn2c(=O)n(Cc3ccccc3)c(=O)c3c(C)c(C(=O)N(C)C)sc32)c1	-5.2	-5.9%
COc1ccc(NC(=O)Cn2c(=O)oc3cc(S(=O)(=O)N4CCC(C)CC4)ccc32)c(OC)c1	-13.3	1.6%
CC1(c2ccccc2)CC(C)(C)N(C(=O)c2ccccc2Cl)c2ccccc21 (stereo not drawn)	20.8	-0.2%
Cc1ccccc1NC(=O)Cn1c(=O)n(CCCCCC(=O)NCc2ccc3c(c2)OCO3)c(=O)c2sccc21	1.6	-12.8%
CCN1CCN(c2oc(-c3ccc(COc4ccc(C)cc4)o3)nc2C#N)CC1	3.3	31.6µM*
